Source: PubChem BioAssay (National Center for Advancing Translational Sciences (NCATS))
D2 ag: Beta-Arrestin HTS for Positive Allosteric Modulators of the Human D2 Dopamine Receptor: Agonists; D(2) dopamine receptor (Homo sapiens), P14416; activation, % (concentration not given with the values); DiscoveRx PathHunter D2 beta-arrestin, luminescence, 90 min; 100% = 57 uM dopamine signal; actives 0.084% (n = 360,000); in the data active = activation above about 40%; inconclusive = about 15% to 40%; inactive = below about 15%; also: compound concentration not given in the record; the text of the record calls up to 30% inactive
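DiscoveRx PathHunter D2 beta-arrestin cells (2,100/well) attached overnight, then compound-stimulated 90 min at 37 C in HBSS/10 mM HEPES/0.1% Tween-20 buffer; beta-galactosidase complementation read by luminescence after 1 h at ambient temperature. Dopamine 57 uM final (EC100) as control.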
CtBP-E1A blk: qHTS Assay for Inhibitors of the CtBP/E1A Interaction; actives 0.49% (n = 340,000); AID 651724, 2012; CtBP / adenovirus E1A interaction (AlphaScreen); activity change, % (test concentration not listed); AlphaScreen GST-E1A/His-CtBP binding, 1536-well; stronger effect = lower value; control for the full effect not named in the record; in the data active means activity change below about -65%; inconclusive means about -30% to -65%; inactive means above about -30%; also: % is scaled to controls: 0 for no effect and ±100 for the full control effect; compound concentration not given in the record
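In 5 uL wells, 23 nL compound meets equimolar GST-E1A and His-CtBP (5X stock 125 nM each) for 2 h, 37 °C. Beads (5X, 50 ug/mL) then 1 h, 37 °C, dark.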
gsp agonist: qHTS for Agonist of gsp, the Etiologic Mutation Responsible for Fibrous Dysplasia/McCune-Albright Syndrome: qHTS; actives 0.13% (n = 340,000); gsp mutant cells, cAMP HTRF, 30 min; control for the full effect not named in the record; AID 624287, 2012; Potency, µM (series often up to 76.9 µM), for inactives: at the top dose activation (cAMP increase), hits mostly activators; active = well fitted activation curve with a large enough effect; inconclusive = small, poorly fitted or top-dose-only effect, or another doubt; inactive = no such curve, though single readings can be large or run the other way; cell line not stated here;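 also: phosphodiesterase inhibitor Ro 20-1724 added with compounds to block cAMP breakdown; potency is read from the fitted curve at half-maximal effect; nearly all actives have a fitted effect of over 60% in size; about a fifth of the inactives were tested at one dose only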
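Cells in DMEM/10% FBS with G418 were pretreated with compounds in DMSO plus […] (300 uM stock) for 30 min at 37C. cAMP was measured by HTRF (cAMP-d2 plus anti-cAMP antibody-K) after 30 min at room temperature.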
Six1-Eya2 inh: qHTS Assay for Inhibitors of the Six1/Eya2 Interaction; Homeobox protein SIX1 (Homo sapiens) + Protein phosphatase EYA2 (Homo sapiens), …; AlphaScreen GST-Six1/His-Eya2 binding, biochemical; stronger effect = lower value; control for the full effect not named in the record; activity change, % (concentration not given with the values); actives 0.56% (n = 360,000); in the data active = activity change below about -65%; inconclusive = about -30% to -65%; inactive = above about -30%; also: % is scaled to controls: 0 for no effect and ±100 for the full control effect
Target sequence (O00167 whole entry, looked up): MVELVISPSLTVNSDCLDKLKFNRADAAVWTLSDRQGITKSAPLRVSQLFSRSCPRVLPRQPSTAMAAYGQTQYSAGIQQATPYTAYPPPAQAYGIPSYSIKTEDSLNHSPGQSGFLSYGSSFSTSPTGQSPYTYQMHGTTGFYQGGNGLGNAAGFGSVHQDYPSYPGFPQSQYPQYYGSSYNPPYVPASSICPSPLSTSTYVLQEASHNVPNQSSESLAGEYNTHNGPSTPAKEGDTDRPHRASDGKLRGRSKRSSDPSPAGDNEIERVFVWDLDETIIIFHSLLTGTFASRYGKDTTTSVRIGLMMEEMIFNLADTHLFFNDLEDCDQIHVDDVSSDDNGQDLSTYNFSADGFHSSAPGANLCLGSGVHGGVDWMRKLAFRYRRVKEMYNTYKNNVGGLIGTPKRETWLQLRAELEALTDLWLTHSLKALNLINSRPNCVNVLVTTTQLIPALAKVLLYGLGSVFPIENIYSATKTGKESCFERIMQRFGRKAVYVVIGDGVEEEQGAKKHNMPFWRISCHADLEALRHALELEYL
Target sequence (Q15475 whole entry, looked up): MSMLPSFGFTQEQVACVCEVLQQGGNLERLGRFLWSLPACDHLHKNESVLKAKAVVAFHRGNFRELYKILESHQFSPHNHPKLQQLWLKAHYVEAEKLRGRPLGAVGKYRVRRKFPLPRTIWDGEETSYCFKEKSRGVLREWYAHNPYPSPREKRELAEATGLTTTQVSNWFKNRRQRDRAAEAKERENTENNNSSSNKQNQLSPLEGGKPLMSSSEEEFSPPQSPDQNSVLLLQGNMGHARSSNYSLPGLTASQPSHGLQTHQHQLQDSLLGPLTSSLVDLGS
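AlphaScreen with GST-Six1 and His-Eya2 (5X mix: 250 nM and 500 nM), glutathione donor and nickel acceptor beads; buffer 50 mM Tris pH 8.0, 300 mM NaCl, 1 mM TCEP; 1 h at 37 C in the dark.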
D2 PAM: Beta-Arrestin HTS for Positive Allosteric Modulators of the Human D2 Dopamine Receptor: Potentiators | D(2) dopamine receptor (Homo sapiens), P14416 | AID 624464, 2012 | DiscoveRx D2 beta-arrestin cells, luminescence, 90 min; 100% = 57 uM dopamine signal | actives 0.23% (n = 360,000) | potentiation, % (concentration not given with the values); active = potentiation of 50% or more; inconclusive = 30% to 50%; inactive = 30% or less;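 also: compound concentration not given in the record; tested on top of an EC20 dose of dopamine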
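PathHunter beta-arrestin assay in DiscoveRx D2 cells. Compounds were added with an EC20 of dopamine (50 nM final) for 90 min at 37 deg C. Luminescence was read 1 h after detection reagent, with 57 uM dopamine as the EC100 control.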
gsp antagonist: qHTS for Antagonists of gsp, the Etiologic Mutation Responsible for Fibrous Dysplasia/McCune-Albright Syndrome: qHTS | gsp-mutant cells, cAMP HTRF, 30 min; control for the full effect not named in the record | Potency, µM (series often up to 76.9 µM), inactives show at the top dose activity change, negative = inhibition, usual class: inhibitors | actives 0.4% (n = 340,000) | AID 624288, 2012; active = falling curve of any shape with a large fitted effect; inconclusive = falling curve, mostly with a smaller effect; inactive = flat or rising curve; cell line not stated here;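 also: intracellular cAMP measured with PDE inhibitor Ro 20-1724 present during compound exposure; potency is read from the fitted curve at half-maximal effect; % is scaled to controls: 0 for no effect and ±100 for the full control effect; nearly all actives have a fitted effect of over 65% in size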
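HTRF cAMP read-out (cAMP-d2 plus anti-cAMP antibody-K in lysis buffer, 30 min RT). Before lysis, cells are exposed to compounds with […] for 30 min at 37C in DPBS containing Ca/Mg, BSA and Tween 20.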
Active calls of the source: *; u = inconclusive; x = no result given; [ ] = dose if it differs, or a comment.

SMILES | D2 ag | CtBP-E1A blk | gsp agonist | Six1-Eya2 inh | D2 PAM | gsp antagonist
Cc1cc(F)ccc1S(=O)(=O)N1CCCOC1CNC(=O)C(=O)NCCc1ccccc1 (stereo not drawn) | 1.5 | 5.9 | -6.5% | 6.8 | -11.2 | -4.3%
COc1ccccc1CNS(=O)(=O)c1c(C)[nH]c(=O)[nH]c1=O | -1.2 | 9.6 | -12.3% | 2.4 | -10.3 | 0.7%
CCSc1nc2c(c(=O)n1Cc1ccccc1)SC(C)C2 (stereo not drawn) | -0.4 | 14.2 | -46.9%[inhibitor] | -20.1 | -3.2 | -27.7%
Cc1ccc(C2=N/C(=C\c3cccnc3)C(=O)O2)cc1 | -1.1 | 3.6 | -43.5%[inhibitor] | -0.5 | -1.0 | 5.4%
COC(=O)/C(=C/c1cccc([N+](=O)[O-])c1)NC(=O)c1ccc(OC)cc1 | -0.3 | -0.7 | 6.1% | -0.4 | 2.0 | 11.6%
COc1cc(C2C(=O)N(C3CCCC3)CC(=O)N2Cc2ccco2)ccc1OC(C)C (stereo not drawn) | -3.3 | -3.3 | -48.4%[inhibitor] | -0.5 | -2.6 | -8.5%
COc1ccc(C(=O)CNc2cccc(F)c2)cc1 | -13.1 | 14.1 | u | -4.9 | -29.3 | -9.9%
O=C(NCc1ccco1)c1ccc2nc([C@@H]3O[C@H](CO)[C@H](O)[C@H](O)[C@H]3O)[nH]c2c1 | -0.5 | 0.1 | x | 6.8 | -2.6 | x
CC(=O)N(C)c1ccc(NC(=S)Nc2ccccc2)cc1 | -1.1 | 9.8 | -29.5% | 12.2 | 4.5 | 9.8%
Cc1ccc(S(=O)(=O)C2(S(=O)(=O)c3ccc(C)cc3)CCCC2)cc1 | -5.7 | -0.7 | 11.8%[15.4 µM] | 6.8 | -12.1 | 14.2%
CCOCCn1cnc2sc(C(=O)NCC(=O)OCC)c(C)c2c1=O | -4.3 | 3.0 | 10.3% | 1.3 | -8.5 | 0.8%
Cc1nn2c(N3CCOCC3)c3c(nc2c1-c1ccccc1)CCCC3 | -1.1 | 14.4 | -1.6% | 12.1 | -19.6 | u
CC(=O)c1sc(NS(=O)(=O)c2ccc(C)cc2)nc1-c1ccccc1 | -3.6 | -8.1 | -18.7% | -2.9 | -9.6 | -19.4%
CCOC(=O)N1CCC(NC(=O)CS(=O)(=O)Cc2nc(-c3ccc(OC)cc3)oc2C)CC1 | 5.8 | 1.3 | -34.0%[inhibitor] | -0.8 | -3.7 | -8.1%
CCOC(=O)N(C)[C@H]1C[C@H]2c3[nH]c4ccccc4c3CCN2C[C@H]1[C@H](C)O | -4.6 | -1.8 | x | 4.9 | -10.1 | x
Cc1ccccc1/C=N/NC(=O)Cc1ccc(Cl)cc1 | -1.7 | 6.6 | -0.6%[15.4 µM] | -0.2 | -15.1 | 7.3%
COc1ccc(/C=C(/C#N)c2cccnc2)cc1OC | -5.9 | 6.6 | x | -1.0 | -11.1 | 9.1%
O=C(O)c1ccc(S(=O)(=O)NCc2ccc3c(c2)OCO3)cc1 | -1.9 | x | -2.2% | -0.1 | -12.5 | 9.4%
O=C(NCc1ccco1)c1cccc(Br)c1 | 1.9 | x | -107.7%[inhibitor] | 3.0 | u | 5.6%
COc1ccc(/C=C/C(=O)Nc2c(C)nn(C)c2C)cc1COc1ccc(Cl)cc1Br | -0.5 | 2.5 | u | 1.6 | -16.9 | 8.4%
COc1ccc(C(CCN2CCCC(C)C2)c2c(OC)cc(OC)c3c(C)cc(=O)oc23)cc1 (stereo not drawn) | 1.9 | -2.4 | x | -1.2 | -24.4 | 10.2%
Cc1ccc(S(=O)(=O)Nc2ccccc2F)cc1C(=O)N1CCN(c2ccccc2O)CC1 | 10.9 | -1.9 | 25.9% | 2.9 | -0.4 | u
C=CCOc1ccc(CNC(C)(C)CO)cc1OC | -2.5 | 2.8 | u | 11.2 | -1.6 | -9.5%
S=C(c1ccc(N2CCCC2)cc1)N1CCCCC1 | -4.7 | -12.6 | -0.6% | u | -8.3 | -16.6%
c1ccc(CCN=C2CCCc3c2[nH]c2ccccc32)cc1 | 12.6 | 0.0 | u | -4.4 | 8.1 | 6.5%
O=C1Nc2cc(Cl)c(Cl)cc2N(O)N1c1ccc(Cl)cc1 | -1.0 | 2.9 | 6.8% | 2.7 | -2.9 | 3.8%
COc1ccc(S(=O)(=O)N2CCOCC2)cc1NC(=O)COC(=O)C1CC1C (stereo not drawn) | 0.2 | 3.1 | 17.0% | 0.9 | 2.6 | 3.7%
COc1ccc(C2(C(=O)Nc3ccc(C)c(C)c3)CCOCC2)cc1 | -2.9 | 0.0 | 2.9% | -11.7 | -10.0 | -9.2%
O=C(O)c1ccc2c(c1)SC1=NS(=O)(=O)CCN12 | -5.1 | 3.7 | u | 3.8 | -6.3 | 5.5%
O=C1CN(CC(=O)Nc2ccc(SC(F)F)cc2)CCN1 | 5.5 | 0.0 | 8.8% | 11.8 | -2.0 | 0.3%
O=C(CSc1nnc(CNC(=O)C23CC4CC(CC(C4)C2)C3)n1-c1ccccc1)Nc1ccccc1 | 0.7 | 5.9 | -49.2%[inhibitor] | 13.1 | 0.5 | -10.5%
C=CCNC(=O)CSc1nnc(-c2ccccn2)n1Cc1ccccc1 | -4.7 | x | -0.9% | 7.0 | -9.6 | 3.5%
CC1CCC(C(=O)NC(C(=O)N2CCC(N3CCCCC3)CC2)C(C)C)CC1 (stereo not drawn) | -1.2 | 5.7 | 4.9% | -0.2 | -24.1 | 6.8%
CCOC(=O)c1ccc(N2C(=O)CC(NC3CCN(C(=O)c4ccc(F)cc4)CC3)C2=O)cc1 (stereo not drawn) | -2.0 | -4.6 | 14.2% | -8.8 | -13.0 | -9.6%
Cc1ccc(C)c(NC(=O)CSc2nnc(-c3ccccc3)n2N)c1 | -0.1 | -1.2 | 0.6% | -1.0 | -4.6 | 4.7%
COc1ccc(S(=O)(=O)Nc2cccc(-c3ccc4nncn4n3)c2)cc1 | 7.8 | -0.4 | 15.2%[15.4 µM] | -8.2 | -2.0 | 15.2%
O=C(NC(NC1CCS(=O)(=O)C1)C(=O)c1ccccc1)c1ccc(Cl)cc1 (stereo not drawn) | -1.2 | 4.3 | -39.1%[inhibitor] | 1.1 | -1.7 | -18.8%
Cc1c(/C=C(\CC(=O)O)c2nc3ccccc3s2)cc(C#N)n1C | -17.4 | 1.3 | -1.2% | -4.5 | -6.8 | -7.0%
CC(=O)NC(c1cccc(F)c1)c1nc(-c2ccccc2)cs1 (stereo not drawn) | 5.5 | 6.1 | x | 13.3 | -0.9 | x
c1ccc(CSc2nnc(-c3cccs3)o2)cc1 | -2.5 | -12.1 | -9.7% | 14.7 | 0.4 | 4.5%
CC(C)n1c(NCc2cccs2)nc2ccccc21 | -4.2 | -1.6 | -22.0% | -0.9 | -9.8 | -9.1%
N#CC(C#N)=C1C=CC=CN1/C(=C\c1ccco1)C(=O)c1ccc(Br)cc1 | -9.6 | -13.7 | 8.4% | -7.6 | -38.7 | 4.5%
C[C@H]1CCCCO[C@H](CN(C)CC2CCCCC2)[C@@H](C)CN([C@@H](C)CO)C(=O)c2cc(NS(=O)(=O)c3ccccc3)ccc2O1 | 2.9 | 1.3 | -11.7% | 4.1 | -3.6 | x
CCOc1ccc(-c2csc(NC(=O)c3ccco3)n2)cc1 | -5.8 | x | 4.4% | 2.4 | -18.9 | -13.8%
O=C(O)CC/C(=C\c1ccc2c(c1)OCO2)c1nc2ccccc2s1 | 0.2 | 0.0 | 1.8%[15.4 µM] | 6.9 | -2.5 | u
Cc1ccc(CNC(=O)C2CCCN2C(=O)Nc2ccc(C)cc2)cc1 (stereo not drawn) | -4.0 | 0.4 | -8.0%[15.4 µM] | -5.3 | -13.1 | -2.2%
O=C(CN1C(=O)NC2(CCCC2)C1=O)N1CCc2ccccc2C1 | 2.6 | 4.8 | -12.2% | 0.5 | 0.6 | 2.1%
Cc1ccccc1N1C(=O)CC(Nc2ccc3c(c2)OCO3)C1=O (stereo not drawn) | -5.5 | -9.7 | -30.4%[inhibitor] | -2.4 | -3.6 | 1.6%
O=C1CCCC(=O)C1C1c2ccccc2CCN1C(=O)CCl (stereo not drawn) | -1.2 | 0.0 | 2.0%[15.4 µM] | 2.6 | -8.2 | 7.6%
CCCCN(C(=O)CSc1nnc(Nc2ccc(C)c(C)c2)s1)c1c(N)n(Cc2ccccc2)c(=O)[nH]c1=O | -4.9 | -27.3 | u | -23.8 | -39.0 | -0.2%
Cc1nn(C(=O)c2nn(C)cc2Cl)c(C)c1Br | -1.1 | 1.7 | -38.3% | -0.6 | -3.7 | -10.8%
CC(=O)SC(C)CC(=O)NCc1ccccc1 (stereo not drawn) | -3.0 | 4.6 | -11.4% | 6.3 | -11.9 | 4.3%
Cc1cc(C)c(O)c(-c2cc(C(=O)NCCc3ccc(S(N)(=O)=O)cc3)[nH]n2)c1 | -1.6 | -0.7 | -11.1%[15.4 µM] | -8.7 | -3.7 | -4.7%
COc1cc(OC)cc(C(=O)Nc2cccc(NC(C)=O)c2)c1 | 0.4 | 10.3 | 15.9% | -0.6 | -3.5 | -7.0%
O=[N+]([O-])c1ccccc1S(=O)(=O)N(CC1CO1)c1ccccc1 (stereo not drawn) | -0.7 | 4.4 | -26.6%[15.4 µM] | -3.7 | -3.8 | 8.8%
Cc1ccc(-n2nc3cc(C)c(N)cc3n2)cc1 | 5.7 | 9.9 | u | 13.6 | 11.0 | 8.8%
CC1=C(C(=O)OCc2ccccc2)C(c2ccc(Cl)cc2)NC(=O)N1CCCC(=O)O (stereo not drawn) | 1.5 | 4.4 | u | -1.7 | 3.6 | -11.0%

A draw from above in order of molecular weight, falling.
SMILES | D2 ag | CtBP-E1A blk | gsp agonist | Six1-Eya2 inh | D2 PAM | gsp antagonist
CCOC(=O)N1CCC(NC(=O)CS(=O)(=O)Cc2nc(-c3ccc(OC)cc3)oc2C)CC1 | 5.8 | 1.3 | -34.0%[inhibitor] | -0.8 | -3.7 | -8.1%
Cc1nn(C(=O)c2nn(C)cc2Cl)c(C)c1Br | -1.1 | 1.7 | -38.3% | -0.6 | -3.7 | -10.8%
CCOc1ccc(-c2csc(NC(=O)c3ccco3)n2)cc1 | -5.8 | x | 4.4% | 2.4 | -18.9 | -13.8%

Outcome played no part in choosing rows. Share with any hit: about 1.4%.
